Screening results from PubChem.
DUX4 inh: blocks DUX4-driven transcriptional activation; 293T-iDUX4 ZSCAN4-Gaussia luciferase reporter, 24 h; stronger effect = lower value; hit rate 0.8% among 37,000; activity change, negative = inhibition, % (test concentration not listed);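 active = -10% or lower and over 25 points stronger than a control reporter; inconclusive = -10% or lower with a smaller gap; inactive = above -10%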;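 also: 0% = median of neutral control wells and -100% = median of positive control wells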
DUX4 inh difference: further read-out of DUX4 inh, marked with its call; Gaussia minus Italica difference, %; measured here: selective DUX4 reporter inhibition;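 worked out from the two reporters; negative = selective loss of the DUX4 reporter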
DUX4 inh control: also measured in DUX4 inh; calls as there; activity change, negative = inhibition, %; measured here: Italica tet-on control reporter;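 0 = neutral control and -100 = positive control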
An asterisk follows results filed as active; ? = inconclusive; / = no result given.

SMILES	DUX4 inh	DUX4 inh difference	DUX4 inh control
O=C(NC[C@H]1N[C@@H](CO)[C@H]1c1ccc(-c2ccccc2)cc1)c1ccccc1F	1	0	0.7
O=C(c1cccc(F)c1)N1CCCCN2[C@@H](CO)[C@H](c3ccc(-c4ccccc4)cc3)[C@@H]2C1	?	/	/
COc1ccccc1CN(C)C[C@@H]1OCc2cnnn2CCCC(=O)N([C@@H](C)CO)C[C@@H]1C	0	-4	3.9
O=C(C[C@H]1CC[C@H]2NC[C@H](O)COC[C@@H]2O1)NC1Cc2ccccc2C1	8	4	3.6
CCC(=O)Nc1ccc2c(c1)C(=O)N(C)C[C@H](OC)[C@H](C)CN(C(=O)c1cnccn1)[C@H](C)CO2	-2	-2	0.3
Cc1cccc(S(=O)(=O)N(C)C[C@H]2OCc3cn(nn3)CCCC(=O)N([C@@H](C)CO)C[C@@H]2C)c1	-4	-6	2.8
C[C@@H]1CN([C@@H](C)CO)C(=O)c2c(c3ccccc3n2C)-c2ccccc2CO[C@@H]1CN(C)C(=O)Cc1ccccc1	9	11	-1.8
CO[C@H]1CN(C)C(=O)c2cc(NC(=O)Nc3ccc(Cl)cc3)ccc2OC[C@@H](C)N(C)C[C@H]1C	-9	-18	8.9
CC=Cc1ccc2n(c1=O)C[C@H]1[C@H](CO)[C@@H](C(=O)N3CCc4ccccc4C3)N(C(=O)C3CC3)[C@@H]21 (mixture of isomers)	6	8	-1.9
COc1ccccc1-c1cnc2c(c1)C(=O)N([C@H](C)CO)C[C@@H](C)[C@H](CN(C)C(=O)CC1CC1)O2	3	0	3.1
Cc1ccccc1S(=O)(=O)NCC[C@H]1CC[C@H](NC(=O)Nc2cccc(F)c2)[C@H](CO)O1	2	3	-0.7
COc1ccc2c3c(n(C)c2c1)[C@H](CO)NCC31CCN(S(=O)(=O)c2ccc(C)cc2)CC1	?	/	/
CNC(=O)C[C@H]1CC[C@H]2[C@H](COc3ccc(NC(=O)Nc4ccc(Cl)cc4)cc3C(=O)N2C)O1	-2	2	-3.8
Cc1noc(C)c1NC(=O)N(C)C[C@@H]1OCCCC[C@H](C)Oc2ccc(N(C)C)cc2C(=O)N([C@H](C)CO)C[C@@H]1C	0	-1	1.2
COCC(=O)NC[C@H]1[C@@H](c2ccc(C3=CCCC3)cc2)[C@H](CO)N1C(C)=O	1	1	-0.8
COc1ccc2c3c([nH]c2c1)[C@H](CO)N(C(C)=O)CC31CCN(C(C)=O)CC1	16	19	-2.5
CO[C@H]1CN(C)C(=O)c2ccc(NS(=O)(=O)CC(F)(F)F)cc2OC[C@H](C)N(CC2CCCCC2)C[C@H]1C	4	0	3.4
CO[C@@H]1CN(C)C(=O)c2cc(NC(=O)CC(F)(F)F)ccc2OC[C@@H](C)N(CC2CC2)C[C@@H]1C	1	0	1.1
CN1[C@H](C(=O)N2CCc3ccccc3C2)[C@@H](CO)[C@@H]2Cn3c(ccc(-c4cccnc4)c3=O)[C@@H]21	4	3	1.2
O=S(=O)(Cc1ccccc1)N1CC2(C1)[C@H](c1ccccc1)[C@@H](CO)N2CC1CCOCC1	?	/	/
O=C(CC1CC1)N1CC(=O)N2[C@H](CO)[C@H](c3ccc(/C=C/c4ccccc4)cc3)[C@@H]2C1	-1	3	-4.4
O=C(NCC1CC1)[C@H]1[C@H](CO)[C@H]2Cn3c(ccc(-c4cccnc4)c3=O)[C@@H]1N2Cc1nccs1	-3	1	-4.0
C/C=C/c1ccc2c(c1)O[C@@H](CN(C)C(=O)CN1CCOCC1)[C@H](C)CN([C@H](C)CO)S2(=O)=O	1	2	-1.1
C[C@@H]1CCCCO[C@H](CN(C)S(=O)(=O)c2cccs2)[C@@H](C)CN([C@H](C)CO)C(=O)c2cc(NC(=O)c3ccccc3)ccc2O1	-4	-2	-2.3
COCC#Cc1cnc2c(c1)C(=O)N([C@@H](C)CO)C[C@@H](C)[C@H](CN(C)C(=O)c1ccc3c(c1)OCO3)O2	0	1	-1.4
O=C(c1ccccn1)N1C[C@@H]2[C@H](c3ccccc31)[C@@H](CO)N2C(=O)CC1CC1	1	5	-4.0
CCCNC(=O)N1CC2(CCN(C(=O)c3cccc(F)c3)CC2)c2c([nH]c3cc(OC)ccc23)[C@@H]1CO	?	/	/
N#C[C@@H]1[C@H](c2ccc(C3=CCCC3)cc2)[C@H](CO)N1C(=O)Cc1ccncc1	-1	-1	-0.1
Cn1cnc(S(=O)(=O)N2CC[C@@H]3[C@H]2c2cc(C#CC4CCCC4)ccc2N[C@@H]3CO)c1	17	12	5.3
CN1CCN(C(=O)C[C@@H]2CC[C@H]3[C@@H](COC[C@H](O)CN3Cc3ccc4c(c3)OCO4)O2)CC1	10	6	4.1
C[C@H](CO)N1C[C@H](C)[C@H](CN(C)S(=O)(=O)c2cn(C)cn2)Oc2c(NC(=O)C3CCOCC3)cccc2C1=O	-3	1	-3.9
COc1ccccc1CN1CC[C@H]2[C@H](CO)Nc3ccc(C#Cc4ccccc4)cc3[C@H]21	2	3	-1.7
O=C(N[C@@H]1CC[C@@H](CCNC(=O)C2CCOCC2)O[C@@H]1CO)c1ccccn1	0	-1	1.1
OC[C@@H]1[C@@H](c2ccc(-c3cccc(F)c3)cc2)[C@@H]2CN(Cc3cncnc3)CCCCN12	27	14	13
COc1ccc2c3c([nH]c2c1)[C@H](CO)N(C(C)=O)CC31CCN(S(=O)(=O)c2cccs2)CC1	-3	-7	3.7
O=C(C[C@H]1C[C@H]2c3cc(NS(=O)(=O)c4ccc(F)cc4)ccc3O[C@H]2[C@@H](CO)O1)NCCc1ccccc1	1	10	-8.6
CS(=O)(=O)N1[C@H](C#N)[C@H](c2ccccc2-c2ccccc2)[C@H]1CO	4	-6	9.7
O=C(C[C@H]1CC[C@@H]2[C@H](COC[C@H](O)CN2C(=O)c2cc(Cl)cc(Cl)c2)O1)N1CCc2ccccc2C1	?	/	/
N#C[C@@H]1N[C@@H](CO)[C@@H]1c1ccc(-c2ccccc2F)cc1	3	3	0.5
O=C(c1cccnc1)N1C[C@@H]2[C@H](c3ccccc31)[C@@H](CO)N2C(=O)Nc1cccc(F)c1	-1	-1	0.2
Cc1noc(C)c1S(=O)(=O)N(C)C[C@@H]1OCc2cnnn2CCCC(=O)N([C@@H](C)CO)C[C@@H]1C	1	2	-1.3
O=C(C[C@@H]1C[C@H]2c3cc(NC(=O)c4cccnc4)ccc3O[C@H]2[C@@H](CO)O1)NCC1CC1	6	7	-0.6
Cc1ccc(S(=O)(=O)N[C@H]2CC[C@H](CCn3cc(C4(O)CCCC4)nn3)O[C@H]2CO)cc1	1	1	0.0
O=C(C[C@@H]1CC[C@H]2[C@@H](COC[C@H](O)CN2Cc2nccs2)O1)NCc1ccc(-c2ccccc2)cc1	?	/	/
CO[C@@H]1CN(C)C(=O)c2ccc(NS(C)(=O)=O)cc2OC[C@@H](C)NC[C@@H]1C	7	4	3.2
CO[C@H](CN(C)CC1CCOCC1)[C@H](C)CN(C(=O)Nc1ccc(F)cc1)[C@@H](C)CO	-2	-4	1.4
C[C@H](O)C#Cc1ccc([C@@H]2[C@H]3CN(C(=O)Nc4ccccc4)CCCCN3[C@H]2CO)cc1	?	/	/
CN(C)C(=O)c1cccc(-c2ccc([C@@H]3[C@H](CO)N4CCCCN(Cc5cccnc5)C[C@@H]34)cc2)c1	20	18	2.6
COc1ccc2c3c(n(C)c2c1)[C@H](CO)N(C(=O)c1ccccc1)CC31CN(C(C)=O)C1	12	2	9.8
Cc1noc(C)c1S(=O)(=O)N(C)C[C@H]1OCCCC[C@H](C)Oc2ccc(NC(=O)Nc3cccc4ccccc34)cc2C(=O)N([C@H](C)CO)C[C@@H]1C	-2	2	-3.7

The listing continues:
SMILES	DUX4 inh	DUX4 inh difference	DUX4 inh control
CC(=O)NC[C@H]1[C@H](c2ccc(-c3cccnc3)cc2)[C@H](CO)N1C(=O)C1CCC1	0	-4	3.7
C[C@H]1CCCCO[C@H](CN(C)C(=O)Nc2cccc3ccccc23)[C@@H](C)CN([C@@H](C)CO)C(=O)c2cc(N(C)C)ccc2O1	-3	3	-6.0
C[C@H]1CN([C@@H](C)CO)C(=O)c2cccc(NC(=O)Nc3ccc4c(c3)OCO4)c2O[C@H]1CN(C)S(C)(=O)=O	-5	-2	-3.0
CN(C)CC(=O)Nc1ccc2c(c1)[C@@H]1C[C@@H](CC(=O)N3CCCCC3)O[C@H](CO)[C@@H]1O2	9	3	6.3
CS(=O)(=O)N1[C@H](C#N)[C@H](c2ccc(C#CC3CC3)cc2)[C@H]1CO	-5	-1	-3.4
CCc1cnc(N2[C@H](C#N)[C@@H](c3ccc(C#Cc4ccccc4F)cc3)[C@@H]2CO)s1	-1	-3	2.4
C/C=C/c1ccc([C@H]2[C@@H](CO)N(C(C)=O)[C@@H]2CNC(=O)c2ccccc2)cc1	-4	0	-3.1
O=C(CC(F)(F)F)N1C[C@@H]2[C@H](c3ccccc31)[C@H](CO)N2C(=O)C1CCCCC1	4	4	-0.4
COC(=O)C[C@@H]1C[C@@H]2c3cc(NC(=O)c4ccc5c(c4)OCO5)ccc3O[C@@H]2[C@@H](CO)O1	1	0	1.0
CCCC(=O)N1CC2(CCN(C(=O)C3CCC3)CC2)c2c(n(C)c3cc(OC)ccc23)[C@@H]1CO	16	18	-1.4
COCC(=O)N[C@@H]1C=C[C@@H](CC(=O)N2CCCCC2)O[C@@H]1CO	6	7	-1.1
N#Cc1cccc(-c2ccc3c(c2)[C@H]2[C@H](CCN2Cc2ccncc2)[C@@H](CO)N3)c1	-47*	-25*	-22*
CO[C@H]1CN(C)C(=O)c2cc(NS(C)(=O)=O)ccc2OC[C@H](C)N(C(=O)NC(C)C)C[C@H]1C	-5	2	-6.7
CN(C)C(=O)c1cccc(-c2ccc([C@H]3[C@@H](CO)N4CCCCN(CC5CCOCC5)C[C@@H]34)cc2)c1	18	16	2.5
O=C(NC1CCCC1)N1CCCCN2[C@H](C1)[C@H](c1ccc(-c3cncnc3)cc1)[C@@H]2CO	11	4	6.6
O=C(Cc1ccccn1)N[C@@H]1CC[C@H](CCn2cc(-c3ccc(F)cc3)nn2)O[C@@H]1CO	?	/	/
O=C(Nc1nccs1)[C@@H]1[C@@H](CO)[C@@H]2Cn3c(cccc3=O)[C@H]1N2C(=O)C1CCC1	0	-7	7.6
CC(C)NC(=O)N1Cc2cc(C(=O)NCC(F)(F)F)nc(-c3cccc(-c4cc5ccccc5o4)c3)c2[C@@H]1CCO	-2	0	-1.4
CC(C)NC(=O)N(C)C[C@H]1Oc2ccc(NS(=O)(=O)c3ccc(F)cc3)cc2CC(=O)N([C@@H](C)CO)C[C@@H]1C	0	-5	4.8
O=C(C1CCCCC1)N1CC2(C1)[C@H](c1ccccc1)[C@@H](CO)N2CCC(F)(F)F	?	/	/
CN1c2ccc(-c3cccc(C#N)c3)cc2[C@@H]2[C@@H](CCN2S(=O)(=O)c2ccccc2)[C@@H]1CO	9	-7	16
Cc1cccc(S(=O)(=O)N2C[C@@H]3[C@H](c4ccccc42)[C@@H](CO)N3C(=O)c2ccccc2)c1	6	4	2.2
CCC(=O)N1[C@@H]2c3ccc(C4=CCCC4)c(=O)n3C[C@@H]2[C@@H](CO)[C@@H]1C(=O)NC1CCCC1	-4	-7	2.9
COc1ccc2c3c(n(C)c2c1)[C@@H](CO)N(C(=O)C1CCOCC1)CC31CN(Cc2cccc(F)c2)C1	?	/	/
CCCNC(=O)Nc1ccc2c(c1)OC[C@@H](C)N(CC1CCCC1)C[C@H](C)[C@H](OC)CN(C)C2=O	-9	-5	-4.0
O=C(C[C@@H]1CC[C@H]2[C@@H](COC[C@@H](O)CN2CC2CCOCC2)O1)NCc1ccc(Cl)cc1	6	9	-2.7
CC(C)NC(=O)N1CC2(C1)[C@H](c1ccccc1)[C@@H](CO)N2C(=O)C1CCCCC1	14	13	0.3

An excerpt. The share of hits here may be higher or lower than overall.
